Beta apoptosis – inhibitors of cytokine-induced beta cell apoptosis, primary screen, luminescence. AID 435005, 2010. hit rate 0.8% among 300,000. protection from apoptosis, % (test concentration not listed). INS-1E cytokine-induced death, ATP luminescence, 48 h; percent of positive-control rescue, neutral wells zero;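 active = all replicates at 75% or more, or half of them and the mean; inconclusive = half reach 75% but not the mean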;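 also: 0% = cytokine-treated negative control wells and 100% = positive control rescue; higher means more ATP so stronger rescue from cytokine killing; wells of about 40 µL received 100 nL stock; the first replicate is given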
Calb FLC – C. albicans growth inhibition with fluconazole, primary screen, CaCi-2 strain, Alamar Blue fluorescence; C. albicans CaCi-2 (fluconazole-resistant clinical isolate) + fluconazole, 48 h; hit rate 0.57% among 300,000; growth inhibition, % (concentration not given with the values);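 active = most replicates above 75%; inconclusive = exactly half above 75%; inactive = most below 75%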;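 also: all wells also contain fluconazole at 8 µg/ml as a sub-toxic cotreatment; 0% = median of DMSO wells and 100% = median of geldanamycin control wells; wells of about 8 µL received 7.5 nL stock; the first replicate is given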
Bfl-1 A1 inh – caspase 3/7 activation in MEF A1-2A-BIM cells, primary screen, A1 inhibitor project, cell-based, luminescence, HTS; caspase activation, % (concentration not given with the values); hit rate 0.066% among 330,000; AID 2462, 2010; Caspase-Glo 3/7 luminescence, 3 h; percent of clofoctol response, vehicle zero;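 active = over half of replicate activation scores above 10%, or exactly half above 10 with the replicate mean above 10; inconclusive = replicate mean below 10 yet half the replicates above 10; inactive = over half of replicates below 10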;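 also: wells of about 30 µL received 50 nL stock; many hits fall short of the cut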
T cruzi inh – inhibitors of intracellular T. cruzi growth, primary screen, luminescence, NIH3T3 host cells; T. cruzi beta-gal in NIH3T3, 90 h; inhibition, % (no concentration beside the values); hit rate 1.4% among 300,000;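 active = mean inhibition across valid replicates above about 55%, limit read from the data; inconclusive = mean below that limit but half or more replicates reach it; inactive = mean below it, under half of replicates reach it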;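 also: signal also drops with host cell toxicity which is not excluded here; 0% = plate median of DMSO wells and 100% = zero luminescence signal; higher percent means less beta-gal luminescence so fewer parasites; stock transfer was 50 nL into about 50 µL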
LANA-H2B inh – blockers of LANA interaction with H2A/H2B – biochemical, FP readout, HTS, primary screen; AID 2629, 2010; inhibition, % (concentration not given with the values); Protein LANA1 (Human herpesvirus 8 type P (isolate GK18)), Q9QR71; cell-free LANA-H2A/H2B peptide, fluorescence polarization; hit rate 0.6% among 320,000; in the data active = inhibition mostly above about 10%, no sharp cut-off; inactive = mostly below about 6.7%;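 also: stock transfer was 7.5 nL into about 10 µL; 0% = median of vehicle wells and 100% = median of positive control wells; one replicate is shown; the record names a cut of 25% in any replicate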
Target sequence (Q9QR71 whole entry, looked up): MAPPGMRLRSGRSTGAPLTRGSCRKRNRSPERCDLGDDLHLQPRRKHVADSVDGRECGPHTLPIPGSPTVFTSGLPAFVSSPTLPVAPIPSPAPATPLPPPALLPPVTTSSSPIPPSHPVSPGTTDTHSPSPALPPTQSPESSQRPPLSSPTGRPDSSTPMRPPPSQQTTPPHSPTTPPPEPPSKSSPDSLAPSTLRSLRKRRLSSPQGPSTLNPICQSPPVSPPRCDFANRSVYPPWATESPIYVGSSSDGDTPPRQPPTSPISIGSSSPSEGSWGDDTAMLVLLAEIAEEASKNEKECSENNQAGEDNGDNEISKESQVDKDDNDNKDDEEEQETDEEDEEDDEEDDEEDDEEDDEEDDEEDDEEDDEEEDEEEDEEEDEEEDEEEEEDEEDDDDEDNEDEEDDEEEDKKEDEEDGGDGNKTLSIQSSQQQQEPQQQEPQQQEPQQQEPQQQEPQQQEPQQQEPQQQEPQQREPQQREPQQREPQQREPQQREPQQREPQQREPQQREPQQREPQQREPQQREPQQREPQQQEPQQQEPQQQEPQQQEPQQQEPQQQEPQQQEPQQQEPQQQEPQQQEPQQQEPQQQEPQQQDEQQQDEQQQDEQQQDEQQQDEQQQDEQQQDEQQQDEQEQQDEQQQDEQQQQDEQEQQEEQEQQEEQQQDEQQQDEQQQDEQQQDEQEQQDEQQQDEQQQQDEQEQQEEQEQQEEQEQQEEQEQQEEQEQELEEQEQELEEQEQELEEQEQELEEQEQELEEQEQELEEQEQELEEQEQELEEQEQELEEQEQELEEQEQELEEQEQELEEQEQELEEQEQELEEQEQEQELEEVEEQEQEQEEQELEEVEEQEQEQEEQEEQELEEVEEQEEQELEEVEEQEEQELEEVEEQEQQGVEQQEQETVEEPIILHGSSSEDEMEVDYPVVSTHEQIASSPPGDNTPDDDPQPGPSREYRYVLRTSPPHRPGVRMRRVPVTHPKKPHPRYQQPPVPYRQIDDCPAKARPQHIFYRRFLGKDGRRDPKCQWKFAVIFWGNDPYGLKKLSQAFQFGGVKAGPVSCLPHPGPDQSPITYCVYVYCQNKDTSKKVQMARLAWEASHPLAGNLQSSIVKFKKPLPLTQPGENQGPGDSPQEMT
RanGTP-Impb inh – inhibitors of RanGTP-importin-beta interaction, primary screen, biochemical, FRET, CFP-Ran, YFP-importin-beta, homogeneous. cell-free CFP-Ran/YFP-importin-beta FRET ratio. inhibition, % (no concentration beside the values). hit rate 1.1% among 300,000. AID 2216, 2009;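 active = most replicates above 15%; inconclusive = exactly half above 15%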;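 also: 0% = DMSO wells and 100% = Ran loaded with GDP instead of GTP; wells of about 40 µL received 100 nL stock; the first replicate is given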
Vif A3G – inhibitors of Vif binding to APOBEC3G peptide, primary screen, biochemical, TR-FRET, GST-Vif 1-94, biotin-A3G peptide, dose response retest (AID 1117319) | Virion infectivity factor (Human immunodeficiency virus type 1 group M subtype B (isolate … | TR-FRET GST-Vif / biotin-A3G peptide binding; higher % means a stronger effect; test concentration not given here; strong numbers were not always called active | one-dose inhibition, %; IC50 in µM for titrated hits | hit rate 0.57% among 260,000;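 active = above the screen mean plus three standard deviations and confirmed in dose response; inconclusive = results disagree or hit not tested in dose response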;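 also: Vif residues 1-94 fused to GST binding biotinylated APOBEC3G peptide 110-148; 0% = full assay without inhibitor and 100% = GST in place of GST-Vif; retest series ran down from 100 µM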
MLL AF4-AF9 inh – inhibitors of AF4 peptide binding to AF9, primary screen, biochemical, AlphaScreen, biotin-AF4 peptide, FLAG-AF9, single point; inhibition, % at 10 µM; AID 651704, 2012; hit rate 0.47% among 350,000;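 active = every replicate reaching a set inhibition limit, whatever the replicate mean, cut at about 25% in these data; inconclusive = mean inhibition reaches that limit but some replicates miss it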;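 also: 0% = plate neutral control median and 100% = total signal loss; the record names both 10 and 1 µM as test concentration; the first replicate is given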
Active calls of the source: *; ? = inconclusive; · = not tested or not shown; & = joins results of further samples.

Every second line gives: Calb FLC | MLL AF4-AF9 inh | T cruzi inh | Beta apoptosis | Vif A3G | Bfl-1 A1 inh | LANA-H2B inh | RanGTP-Impb inh
1: Cc1cccc[n+]1CC(=O)c1ccc(Cl)cc1
→ -8 | -0.1 | -14 | 0 | · | 0.0 | -5.0 | -1.4
2: Cc1ccc(-c2nc3c(Cl)cc(Cl)cc3c(=O)n2O)cc1
→ 96* | -1.6 | -15 | 5 | · | 0.0 | -0.3 | 2.9
3: N#Cc1c(N)nc(SCc2ccncc2)c(C#N)c1-c1cccs1
→ 30 | · | 64* | 7 | 4%&-3% | 1.7 | 2.4 | 2.4
4: COc1ccc(CCNC(=O)CN2CCN(c3cccc(Cl)c3)CC2)cc1OC
→ 7 | · | 3 | -1 | -4% | 0.7 | -0.6 | -0.8
5: O=c1[nH]c2ccc(NC(=S)Nc3ccc(Cl)cc3Cl)cc2[nH]1
→ -17 | · | -9 | -3 | 4% | 0.3 | 1.0 | -3.3
6: COc1ccc(NC(=O)CCCNC(=O)Cn2cnc3sc(C)c(C)c3c2=O)cc1OC
→ -11 | -2.3 | 3 | -3 | · | 1.1 | -4.8 | 4.9
7: O=C(NCc1cccnc1)C1CCCN(Cc2cnn(-c3ccccc3)c2-n2cccc2)C1 (stereo not drawn)
→ 3 | · | -1 | -1 | 26% | 0.3 | -1.5 | ?
8: CS(=O)(=O)c1nc2c(cc1C#N)CCCC2
→ -4 | -9.3 | -8 | -4 | · | 1.7 | -13 | 0.8
9: COCCCn1c(SCC(=O)NNC(=O)c2cccc(O)c2)nnc1-c1ccncc1
→ 1 | -13 | 7 | -3 | -1% | 0.2 | -2.4 | -1.3
10: COC(=O)CNC(c1ccccc1)c1cc(Br)ccc1NS(=O)(=O)c1ccc(C)cc1 (stereo not drawn)
→ 20 | 2.4 | 31 | -3 | 30% | 0.3 | -3.1 | 2.6
11: O=C(C[n+]1cccc(C(=O)Nc2ccccc2)c1)c1ccc([N+](=O)[O-])cc1
→ 6 | 12 | 17 | 17 | · | 0.4 | -0.1 | 5.3
12: COC(=O)C1=C(C)N(CCc2cc(OC)c(OC)c(OC)c2)C(=O)N[C@H]1c1cccs1
→ 2 | · | -2 | 7 | · | ? | 7.2 | 1.8
13: COc1ccc(CNC(=O)C2CSC(c3ccc(OC)cc3)N2C(C)=O)cc1 (stereo not drawn)
→ -2 | 4.9 | -4 | · | 10% | 0.0 | -0.3 | ?
14: C=C(C)C(=O)Oc1ccc(N2C(=O)[C@@H]3C4C=CC(C4)[C@@H]3C2=O)cc1
→ -6 | -1.3 | 0 | -1 | -6% | -0.4 | 0.0 | 1.6
15: CC(=O)c1cn(CCOc2ccccc2C)c2ccccc12
→ 19 | -2.1 | 1 | · | 2% | -0.4 | -9.0 | -3.5
16: O=C(O)CCC(=O)N1N=C(c2ccccc2)CC1c1ccc(Br)cc1 (stereo not drawn)
→ 9 | 5.5 | -2 | 1 | · | 2.2 | -2.7 | -0.4
17: O=C(Nc1cccnc1)C1COc2ccccc2O1 (stereo not drawn)
→ 2 | · | -9 | -3 | 6% | 0.3 | -7.3 | -0.8
18: COc1ccccc1OCc1nnc(SCC(=O)Nc2nnc(C3CC3)s2)n1C
→ -2 | 3.1 | -7 | 3 | · | -0.1 | 5.1 | -1.9
19: CC(=O)Nc1ccc(NC(=O)C(C)Oc2ccc(C)nc2[N+](=O)[O-])cc1 (stereo not drawn)
→ · | -0.2 | · | -7 | · | 0.5 | 1.1 | ·
20: COc1ccc(C(=O)N/N=C/c2ccc(N(C)c3ccccc3)cc2)cc1
→ 24 | -5.9 | · | -3 | · | 1.6 | -4.4 | 0.2
21: CCN1CCCC1CNCc1ccc(Cl)cc1Cl (stereo not drawn)
→ -23 | · | 25 | 3 | ? | 0.2 | 7.1 | 2.5
22: O=C(CN1CCN(Cc2ccc(Cl)cc2)C1=O)NCCN1CCCC1
→ -3 | 4.0 | -18 | -1 | -2% | 0.4 | 2.8 | 3.1
23: O=C(Cc1cccc(NC(=O)C2CCN(C(=O)c3ccccc3)CC2)c1)Nc1cccc(C(=O)N2CCCC2)c1
→ · | -0.7 | · | 6 | · | -1.6 | 1.1 | ·
24: CCC1S/C(=C(\C#N)C(=O)NCc2ccco2)N(c2ccc(F)cc2)C1=O (stereo not drawn)
→ -2 | · | 0 | -2 | >100µM* | -0.1 | -3.3 | -0.1
25: CCOC(=O)c1cc2sc(C)cc2n1CC(=O)Nc1cccc(C)c1C
→ 5 | · | 25 | 4 | -6% | -0.2 | -0.3 | -3.2
26: O=C(NCc1ccccc1)NC1(C(=O)N2CCCC2)CCCCC1
→ · | · | · | -4 | 15% | 0.1 | 15 | ·
27: COc1ccc(C(=O)Nc2ccc3nc(C)c(C)nc3c2)cc1
→ -5 | -0.1 | 11 | 2 | -11% | -0.5 | 10 | -1.2
28: Cc1cnc(NC(=O)CCNC(=O)c2ccccc2Cl)s1
→ -3 | 0.5 | 2 | -5 | 4% | 0.1 | 6.5 | 2.5
29: COc1ccc2c(c1OC)C(=O)OC2CC(=O)c1ccc2c(c1)OCO2 (stereo not drawn)
→ -3 | · | -9 | -2 | -3% | 0.5 | 4.5 | 4.7
30: CCC1COC(c2cccn2Cc2ccccc2Cl)=N1 (stereo not drawn)
→ 19 | 0.1 | -31 | -5 | · | 0.7 | 2.8 | -3.9
31: O=C(Nc1nc2cc3c(cc2s1)OCO3)c1ccc(N2C(=O)CCC2=O)cc1
→ 3 | -2.4 | -4 | -4 | 32% | 0.6 | 2.2 | 9.1
32: CC(=O)c1cc(C(=O)N2CCc3c([nH]c4ccccc34)C2C2CCCCC2)[nH]n1 (stereo not drawn)
→ 91* | 14 | -5 | 5 | 7% | 0.8 | 0.1 | 4.6
33: O=C(c1nc2nc(-c3cccs3)cc(C(F)(F)F)n2n1)N1CCN(Cc2ccccc2)CC1
→ -2 | · | 11 | -1 | -4% | 1.6 | -3.4 | 1.5
34: Cc1nc2cc(NC(=O)NCc3ccccc3)ccc2o1
→ -9 | · | -7 | 1 | 6% | -0.3 | -4.1 | 4.5
35: CCOC(=O)C[N+](CC)(CC)CC#Cc1ccccc1
→ 16 | · | -29 | 0 | 13% | 0.1 | -1.0 | ?
36: Cc1ccc(NC(=O)CN2CCCC2)c2c1CC(C)(C)O2
→ -12 | 0.9 | -15 | -6 | 5% | -0.2 | -3.0 | 0.0
37: COc1cc(C(=O)NNC(=S)NC(=O)c2ccc(F)cc2)cc(OC)c1OC
→ -4 | 2.7 | 65* | 7 | 14% | 0.2 | -0.5 | -2.8
38: N#Cc1cccc2c1-c1ccccc1/C2=N/NC(N)=O
→ -13 | · | 16 | · | -5% | 0.8 | 12 | -1.3
39: CN(C)c1ccc(CN(C(=O)c2ccco2)C2CCS(=O)(=O)C2)cc1 (stereo not drawn)
→ -5 | · | -2 | 6 | 18% | 0.4 | 2.6 | -1.2
40: Cc1nnc(N2C(=O)C(=O)/C(=C(/O)c3ccc4c(c3)OCCO4)C2c2ccc([N+](=O)[O-])cc2)s1 (stereo not drawn)
→ -4 | 1.9 | -22 | · | · | -4.2 | 1.9 | 1.7
41: O=C(NC(=S)Nc1ccc2c(c1)OCCO2)c1ccccc1F
→ 39 | 4.9 | -14 | · | -2% | -5.6 | 13* | -13
42: Cc1ccc(-c2ccc(C3C(C#N)=C(N)Oc4n[nH]c(C)c43)o2)cc1 (stereo not drawn)
→ -37 | · | 5 | -1 | 7% | -0.1 | 0.8 | 39*
43: CCN(CC(=O)Nc1ccc2c(c1)OCCO2)C(=O)/C=C/c1cccc(Br)c1
→ 5 | -0.9 | -12 | -2 | -8% | 1.7 | 7.2 | 0.6
44: O=C(CCC(=O)N(CC(=O)NC1CCCCC1)CC1CCCO1)Nc1nccs1 (stereo not drawn)
→ 3 | -0.6 | -4 | 5 | 4% | -0.6 | 3.9 | -3.0
45: COc1ccc(OC)c(/C=N/N=C(\N)c2nonc2N)c1
→ -1 | 1.3 | -11 | -12 | -13% | 0.0 | -1.5 | -0.9
46: CCCN(C(=O)Cn1nc(C)c([N+](=O)[O-])c1C)c1c(N)n(Cc2ccccc2)c(=O)[nH]c1=O
→ 2 | -3.8 | 16 | 2 | 2% | 0.6 | 1.6 | 0.4
47: COc1ccc(C2N(C(=O)N(C)C)CCN2S(=O)(=O)c2ccc(OC)cc2)cc1 (stereo not drawn)
→ -7 | -2.2 | 0 | -8 | · | 0.0 | 0.8 | -0.2
48: O=C(Nc1ccc2nn(-c3ccccc3)nc2c1)c1ccc2c(c1)OCO2
→ -4 | · | -5 | 6 | 25% | -0.4 | -1.5 | -1.7
49: Cc1ccc(C(=O)Oc2coc(CSc3nnc(NC(=O)c4cccs4)s3)cc2=O)cc1C
→ -6 | · | -32 | · | 17% | 0.0 | 2.8 | 0.6
50: Cc1ccc(NC(=O)Nc2ccc3c(c2)CCC3)c(C)c1
→ -12 | 2.0 | · | 2 | · | 0.8 | 6.7 | ·
51: CC(C)COc1cc(=O)[nH]c(SCC(C)C)n1
→ -2 | · | 5 | 1 | 24% | 2.8 | -3.6 | -2.4
52: C=CCOc1ccc(/C=C2\SC(=Nc3cccnc3)NC2=O)cc1
→ -1 | -3.4 | -15 | 1 | 4% | 0.3 | 0.3 | -0.6
53: O=C(O)c1ccc2c(=O)n3cc(C(=O)c4ccccc4O)cc(Cl)c3nc2c1
→ 3 | -1.3 | 9 | -2 | ? | -0.1 | -0.9 | 3.0
54: COc1ccccc1C(=O)NC(CCSC)C(=O)NCCCn1nc(C)cc1C (stereo not drawn)
→ 1 | 4.3 | -1 | · | -9% | 0.6 | 6.6 | 1.1
55: CC1(C)CC2CC(C)(CN2C(=O)COC(=O)Cn2[nH]c(=O)c3ccccc3c2=O)C1 (stereo not drawn)
→ 37 | · | 3 | 1 | 28% | -0.1 | 0.0 | 2.5
56: N#Cc1nc(Cc2ccccc2)oc1N1CCC(C(N)=O)CC1
→ -6 | · | -3 | -11 | -9% | -0.7 | -2.0 | 1.5
57: CSCCC(N=C1NS(=O)(=O)c2ccccc21)C(=O)NCc1ccccc1F (stereo not drawn)
→ 0 | -0.3 | -7 | -3 | · | -0.5 | 1.2 | 0.1
58: CC(=O)c1c(C)[nH]c(C(=O)OCC(=O)NCCCc2ccccc2)c1C
→ · | 0.8 | · | -3 | · | -1.3 | -0.8 | ·
59: COC(=O)c1ccccc1NC(=O)COC(=O)c1ccc(C)c(NC(=O)c2ccco2)c1
→ 5 | · | 27 | 0 | 5% | 0.0 | 3.8 | -0.1
60: CCNc1cc(=O)n(C)c(=O)n1C
→ 1 | · | -5 | -8 | ? | 0.0 | -0.6 | -2.7

Compound activity deposited in PubChem BioAssay by several laboratories.
